VACV Venus inh: vaccinia inhibition (Venus reporter); Vaccinia virus Venus reporter expression, fluorescence; Potency, µM (highest dose often 36.5 µM), for the others: at the top dose activity change, negative = inhibition, hits mostly inhibitors; actives 0.46% (n = 330,000); AID 720580; active means well fitted inhibition curve with a large enough effect; inconclusive means small, poorly fitted or top-dose-only effect; inactive means no such curve, though single readings can be large or run the other way; tested in A549 cells; note: nearly all actives have a fitted effect of over 30% in size; inactives centre near -10
Vaccinia mCherry: inhibitors of vaccinia virus infection (mCherry reporter signal) | Vaccinia virus mCherry reporter infection, fluorescence; about a quarter of the inactives have no number | Potency, µM (doses to about 36.5 µM), for inactives: top-dose activity change, negative = inhibition, most hits filed as inhibitors | actives 0.63% (n = 310,000); active = well fitted inhibition curve with a large enough effect; inconclusive = small, poorly fitted or top-dose-only effect; inactive = no such curve, though single readings can be large or run the other way; tested in A549 cells; note: nearly all actives have a fitted effect of over 35% in size; inactives centre near -10
* = called active by the depositor; i = inactive; ? = inconclusive; nt = no result given; & = joins results of further samples; [ ] = dose if it differs, or a comment. % is set by controls: 0 for no effect and ±100 for the full control effect; potency is the fitted concentration of half-maximal effect.

SMILES | VACV Venus inh | Vaccinia mCherry
Cc1ccc(CN2CC3CC(C2)c2cccc(=O)n2C3)cc1 (centres undefined) | -10.0% | -12.7%
O=C1N(c2ccccc2C(F)(F)F)O[C@]1(c1ccccc1)C1CCCCC1 | ? | -17.8%
Cc1cccc(C(=O)NC(C)C2CC3CCC2C3)c1 (centres undefined) | -1.7%[7.34 µM] | i[7.34 µM]
O=C(COC(=O)c1ccc2c(c1)OCO2)Nc1ccccc1 | -0.7% | -12.6%
Cc1ccc(NC(=S)N(CCCN2CCC(C)CC2)Cc2ccco2)cc1C | -19.9% | i
COc1ccc2c(=O)c(N3C(=O)c4ccccc4C3=O)c(C)oc2c1 | -7.8% | -4.6%
CC(=O)NC(c1ccc(F)c(F)c1)c1nc(-c2ccccc2C)cs1 (centres undefined) | 1.4% | 4.1%
Cc1ccc(C)c(CSC2=NN3CCCC(=O)N=C3S2)c1 | -19.0% | -6.5%
COc1ccc(NC(=O)c2nc(-n3nc(C)cc3C)ccc2Cl)cc1Cl | -4.5% | -18.6%
CCOc1ccc2c(c1)/C(=N/N1C(=O)c3ccccc3C1=O)C(=O)N2 | -4.5% | -13.4%
Cn1cc(Cl)c(C(=O)Nc2nc3ccc(Cl)cc3s2)n1 | -5.6% | -4.0%
COCCNC(=O)C1(C)CCCN(C(=O)c2cccnc2SC)C1 (centres undefined) | -1.3% | 35.6%[activator]
CCOC(=O)C1CCN(C(=O)c2ccc(CNS(=O)(=O)c3ccc(C)cc3)cc2)CC1 | -15.1% | i
O=C(N/C=C/c1ccco1)NCc1ccccc1 | -12.2% | -0.8%
Cc1ccc(NC(=S)N2CCN(S(C)(=O)=O)CC2)cc1Cl | -17.1% | -17.1%
Cn1c(SCC(=O)NC(C)(C)C)nnc1-c1cnccn1 | -9.8% | i
Cc1ccc2nc(NCCc3ccccc3)c3nncn3c2c1 | -5.1% | -12.2%
Cc1ccc(-n2ncc(C(=O)NCc3cccs3)c2C2CCN(C(=O)OC(C)(C)C)CC2)c(C)c1 | -17.9% | -20.4%
Cc1cccc(N2CCN(Cc3nnc(-c4ccccc4C)o3)CC2C)c1 (centres undefined) | -9.2% | -16.3%
CNC(=S)N(CCc1c(C)[nH]c2ccc(OC)cc12)Cc1cccnc1 | -5.6% | -10.2%
CC(C)OC(=O)c1ccc(NC(=S)NC(=O)c2cncc(Br)c2)cc1 | -11.6% | -5.9%
C=CCOc1ccc(C2N3CC4(CC)CN2CC(CC)(C3)C4=O)cc1 (centres undefined) | -12.1% | nt
COc1ccc(CCN(C)c2ccc(S(=O)(=O)N3CCCC3)cn2)cc1OC | -23.7% | -15.4%
CC1Cc2ccccc2N1C(=O)COC(=O)c1ccc([N+](=O)[O-])o1 (centres undefined) | -23.4% | -20.0%
O=C(OCC(=O)c1c[nH]c2ccccc12)c1cccc(O)c1 | -11.6% | -15.7%
CCN1C(=O)[C@H]2[C@H]3CN=C(SCc4ccc(OC)cc4)N3[C@@](CC)(C(=O)OC)[C@H]2C1=O | 1.9% | -5.0%
COCc1c(C#N)c(NCCc2ccccc2)nc(C)c1[N+](=O)[O-] | -4.1% | i
Oc1ccccc1C=Nc1ccccc1-c1nc2ccccc2[nH]1 | -6.0% | -22.8%
CCCN(CCC)Cc1c(C(=O)OCC)nnn1-c1nonc1N | -19.2% | nt
COCCCC1CCN(C(=O)C2CCC(=O)N(Cc3ccccc3F)C2)CC1 (centres undefined) | -12.6% | -2.4%

One compound at a time, from the list above. Order of screens: VACV Venus inh	Vaccinia mCherry
Oc1ccccc1C=Nc1ccccc1-c1nc2ccccc2[nH]1 across the screens: -6.0%	-22.8%
CC(C)OC(=O)c1ccc(NC(=S)NC(=O)c2cncc(Br)c2)cc1 across the screens: -11.6%	-5.9%

Further records follow:
SMILES | VACV Venus inh | Vaccinia mCherry
O=C(NCCc1ccc2c(c1)OCO2)C1CCN(S(=O)(=O)c2ccc(Cl)cc2)CC1 | -14.9% | i
COc1ccccc1NC(=O)CCCc1nnc2n(C)c(=O)c3sccc3n12 | 11.3%&5.0% | -8.6%&-6.5%
COc1ccccc1C(=O)COC(=O)C1(C)CC1(Cl)Cl (centres undefined) | -6.9% | -2.2%
O=Cc1c(-c2ccc(Cl)cc2)oc2ccc(O)cc12 | -15.0% | -28.0%
CCOC(=O)c1c2n(c3ccc(OC(C)=O)cc13)CCC2 | -20.2% | i
Cc1nn(CC2CC2)c(=O)n1-c1ccc(C(C)C)cc1 | -7.0% | i
CC(=O)N1CCC[C@H]1C(=O)NCC1Cc2cc(F)cc(-c3ccc(F)c(C)c3)c2O1 (some centres undefined) | -1.8% | -14.4%
Cc1ccc(-c2csc(NC(=O)CSc3nnc4c(n3)[nH]c3ccccc34)n2)cc1 | ? | ?
CCOc1ccc(-c2cn(CCC#N)cn2)cc1 | -11.9% | -3.2%
CN(Cc1ccc(N(C)C)cc1)C(=O)c1cc2ccccc2o1 | -7.7% | -7.4%
COc1cccc(CNC(=O)CCCNC(=O)c2ccc(Cl)cc2)c1 | -4.9% | 4.9%
O=C(Nc1cccc([N+](=O)[O-])c1)NC1CCCCCCC1 | -16.7% | -11.0%
COc1ccc(CCNC(=O)CCC(=O)n2ncc3cc(C)ccc32)cc1OC | -3.8% | -10.3%
COc1ccc2cc3cc(C(=O)NCCCN4CCOCC4)oc3nc2c1 | -7.3% | -8.8%
CCOc1cc(N2CCOCC2)c(OCC)cc1NC(=O)C(C)(C)C | -6.5% | -2.8%
NC(=O)c1nc(N2CCOCC2)nc(N2CCOCC2)n1 | -11.8% | -17.2%
Cc1ccc(/C=C2/Sc3ccccc3N(CC(=O)NCC3CCCO3)C2=O)cc1 (centres undefined) | -9.4%[7.34 µM] | -18.4%[7.34 µM]
COC(=O)C(NC(=O)c1ccccc1)=C1C=C(C)OC(C)=C1 | -0.7% | nt
COc1ccc(Cl)cc1NC(=O)COc1cccc2c(=O)n(C)ccc12 | -6.1% | -12.9%
COc1ccc(-c2cc(C(=O)NC(C)C)no2)cc1 | -19.2% | i
O=S(=O)(c1ccccc1)c1nc(-c2cccc(Cl)c2)oc1NCc1ccccc1 | -15.0% | ?
O=C(c1ccc(=O)[nH]n1)N1CCN(S(=O)(=O)c2cccc(F)c2)CC1 | -12.1% | -9.2%
O=C(c1ccco1)N(CCCN1CCOCC1)c1nc(-c2ccc(F)cc2)cs1 | ? | -18.1%
c1cnc2c(OCc3cn4cccnc4n3)cccc2c1 | -19.4% | nt
COc1ccc(/C=N/NC(=O)c2ccc(COCC(F)(F)C(F)F)cc2)cc1 | -15.1% | i
Cc1oc(-c2ccccc2Cl)nc1CN1C(=O)CN=C(c2ccccc2)c2ccccc21 | -25.6% | -25.8%
CC(C)CN1CCN(Cc2cccc3ncccc23)CC1CCO (centres undefined) | -4.2% | -20.5%
O=c1[nH]c(=S)[nH]cc1Oc1ccc(Br)cc1Br | -13.3% | i
CCc1ccc(N(C)S(=O)(=O)c2ccc3[nH]cc(C(=O)NCCN4CCOCC4)c(=O)c3c2)cc1 | -5.8% | -15.0%
CCOC(=O)c1cc(C#N)c(NCc2ccccc2)nc1C | -7.6% | -17.0%
CC(=O)c1ccc(NC(=O)c2nc(-c3ccccc3)n(-c3ccc(C)cc3)n2)cc1 | -12.5% | -11.6%
Cc1cc(NN)nc(NS(=O)(=O)c2ccccc2)n1 | -5.4% | -2.9%
COc1ccccc1-n1cnc(N)c1C(=O)c1ccccc1 | ? | ?
Fc1ccc(NC(=S)NNc2ncc(C(F)(F)F)cc2Cl)c(F)c1 | -43.2% | -46.9%
C#CCOCCOCCOCCNc1nc(N2CCN(C(=O)C([C@@H](C)CC)n3cc(C(N)COC(=O)C(F)(F)F)nn3)CC2)nc(N2CCN(C(=O)[C@H](CCCCN)n3cc(C(N)[C@H](C)CC)nn3)CC2)n1 (some centres undefined) | -7.7% | -1.2%
Cc1nc2ccccn2c1/C(O)=C1\C(=O)C(=O)N(CCN(C)C)C1c1cccnc1 (centres undefined) | -6.5% | nt
CC(C)CC1C(=O)N(Cc2cn(CC3CCCCC3)nn2)CCS(=O)(=O)N1Cc1ccc(-c2cccc(CO)c2)cc1 (centres undefined) | ? | -23.7%
Cc1ccc(-c2cc(C(F)(F)F)n3nc(C(=O)Nc4ccc(Cl)cc4Cl)cc3n2)cc1 | -11.8% | -12.0%
O=C(Nc1nnc(C2CC2)s1)C1CCCCN1S(=O)(=O)c1ccccc1 (centres undefined) | -2.9% | i
CCN1C(=O)c2cccc3c(NC(=O)c4ccc(S(=O)(=O)N(C)C)cc4)ccc1c23 | -1.0% | nt
CC[C@@]1(C(=O)OC)N[C@H](CN(C)S(=O)(=O)c2ccc(-c3ccccc3)cc2)[C@@H]2C(=O)N(Cc3ccccc3)C(=O)[C@@H]21 | -14.7% | -3.4%
Cc1ncc(S(=O)(=O)c2ccccc2)c(-c2ccccc2)n1 | -1.8% | -13.6%
Cc1oc(-c2ccc(Cl)cc2)nc1CN1CCCC(C(=O)NCCc2ccccc2)C1 (centres undefined) | -20.1% | -27.2%
Cc1ccc(NC(=O)c2cc(S(=O)(=O)N3CCCCC3)ccc2N2CCOCC2)cc1F | -11.8% | -13.8%
Cc1cccc(NS(=O)(=O)c2ccc(C)c(NS(=O)(=O)c3cccs3)c2)c1 | -9.9% | -2.4%
COc1ccccc1C1=NC(c2ccc(F)cc2)N=C1C (centres undefined) | -24.0% | i
CN1CCN(c2nc3c(c(=O)[nH]c(=O)n3C)n2Cc2ccccc2)CC1 | -5.2% | i
CCOC(=O)/C(N=O)=C(\O)C1CCN(C(=O)OCC)CC1 | -16.7% | -13.1%
CC(=O)Nc1c(C)nn(-c2ccccc2)c1N1CCC(C(=O)Nc2ccc(C)cc2Cl)CC1 | 3.1%[7.34 µM] | -8.1%[7.34 µM]
CCN(CC)S(=O)(=O)c1nnc(NC(=O)COc2cccc(C)c2)s1 | -8.1% | -9.5%
CCCCN(CCCC)Cc1ccc(C(=O)NNC(=O)Nc2ccc(Cl)cc2)o1 | -2.1% | ?
C=CCn1c(NCc2c[nH]c3ccccc23)nc2ccccc21 | ? | nt
Cc1csc(NC(=O)c2cc3c(C)nn(Cc4ccccc4Cl)c3s2)n1 | -24.5% | -13.0%
Cc1sc2ccccc2c1CC1=NCCN1 | 5.3% | -2.7%
CSc1ncccc1C(=O)Nc1nc2ccc(S(C)(=O)=O)cc2s1 | -16.6% | i
CC(=O)c1ccc(-n2ccnc2)cc1 | -4.9% | -7.7%
O=C(CC1Nc2cccc3cccc(c23)NC1=O)Nc1ccc(F)cc1 (centres undefined) | -26.4%&-10.9% | ?
COc1ccc(NC(=O)CC23CC4CC(CC(Br)(C4)C2)C3)c(OC)c1 | 2.7% | -18.1%
Cc1ccc2c(c1)c1c3n2CCN(C(=O)CCl)C3CCC1 (centres undefined) | -14.3% | ?
CC(=O)Oc1cc(OC(C)=O)c2c(=O)c(-c3ccc4c(c3)OCCCO4)c(C)oc2c1 | -3.5% | -19.0%

The results go on:
SMILES | VACV Venus inh | Vaccinia mCherry
C/C(=N\NC(=O)c1nnn(-c2nonc2N)c1CN(C)c1ccccc1)c1ccccc1O | ? | ?
CCOC(=O)c1[nH]c(C)c(C(=O)NCc2ccc(Cl)cc2)c1C | -12.6% | -17.3%
Nc1c(C(O)(C(F)(F)F)C(F)(F)F)cc(C(O)(C(F)(F)F)C(F)(F)F)c2ccccc12 | ? | 11.2µM*
COc1ccc(NC(=O)NC(c2ccccc2)c2ccccc2)c(OC)c1 | -8.7% | -14.4%
CCCNC(=O)c1cc(C2CCCCN2C(=O)c2cc(C(C)(C)C)nn2C)on1 (centres undefined) | -7.1% | i
COc1cc(S(=O)(=O)N2CCOCC2)ccc1N | -18.4% | i
COc1ccccc1-c1nnc(SCC(=O)Nc2ccc(N3CCOCC3)cc2)n1C | -15.8% | i
Cc1cn(C)c(CC(=O)N2CCN(c3cccc(C(F)(F)F)c3)CC2)c1C(=O)O | -2.3% | -5.7%
Cc1ccc2c(=O)c(C(=O)c3cccc(Cl)c3)cn(CC(=O)Nc3ccccc3C(F)(F)F)c2n1 | -0.2% | 6.0%
CC(C)CNC(=O)C1(C)CCCN1Cc1ccccc1OC(F)F (centres undefined) | 5.1% | -5.3%
COc1ccc(CCNC(=O)CSc2nnc3ccc(-c4ccncc4)nn23)cc1 | -13.5% | -10.2%
O=Cc1cn(-c2ccccc2)nc1-c1cc2c(ccc3ccccc32)oc1=O | -3.8% | -11.3%
COc1ccc(/C=C/c2nc(C#N)c(NCc3ccc(C)cc3)o2)cc1OC | -18.2% | i
Cn1cc(S(=O)(=O)Cc2ccc(F)cc2)c2ccccc21 | -5.6% | i
Cc1ccc2ccccc2c1C(O)c1ncc(-c2ccccc2Cl)[nH]1 (centres undefined) | 0.3% | 6.0%
O=C(COc1ccccc1)Nc1ccc(S(=O)(=O)N2CCOCC2)cc1 | -10.8% | nt
O=C(Cc1ccc(F)cc1)N(c1ccccc1)C1C=CS(=O)(=O)C1 (centres undefined) | -9.9% | i
COc1ccc(S(=O)(=O)Nc2cccc3c2O[C@H](CN(C)C(=O)NC2CCCCC2)[C@@H](C)CN([C@H](C)CO)C3=O)cc1 | 0.0% | -3.5%
CN1CC(=O)N(C)c2ncn(Cc3ccccc3)c2C1=O | -22.9% | nt
Cc1ccnc(NC(=O)c2ccccc2[N+](=O)[O-])c1 | -17.9% | -23.1%

High-throughput results (PubChem)
